# From PubChem
# CFTR F508del: compounds raising F508del-CFTR protein level – cell-based, HeLa F508del-CFTR, immunofluorescence, viability, primary screen (AID 1224863) | HeLa F508del-CFTR, immunofluorescence total CFTR, 24 h; by the record results were divided by relative cell number; some inactives read as strong as hits | calls, or highest fold increase where a dose series was run | hit rate 0.1% among 10,000; in the data nearly all actives have a first-pass fold increase above 1.5; a few of its hits are not listed in these tables;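 also: total CFTR protein by anti-CFTR immunofluorescence in fixed cells; first pass at 25 µM or 10 µg/mL by library and series up to twice that; 1 = untreated cells; first-pass hits also needed half or more of the cells alive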
# CFTR F508del fold 25 µM: further read-out of CFTR F508del, marked with its call; fold increase; measured here: primary screen single dose 25 uM; library dosed in µM
# CFTR F508del fold 10 ug/mL: also measured in CFTR F508del; calls as there; fold increase; measured here: primary screen 10 ug/mL
# CFTR F508del viability 25 µM: also measured in CFTR F508del; calls as there; viability, %; measured here: primary viability 25 uM; library dosed in µM;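 0% = killed and 100% = untreated cells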
# CFTR F508del viability 10 ug/mL: recorded beside CFTR F508del, whose call it bears; viability, %; measured here: primary viability 10 ug/mL;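 0% = killed and 100% = untreated cells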
# The depositor's hits bear a star; i = inactive; nt = no result given; & = joins results of further samples.
# Start of the data: the first 5 entries, to show the layout:
SMILES,CFTR F508del,CFTR F508del fold 10 ug/mL,CFTR F508del viability 10 ug/mL,others
O=C(O)C1(c2ccc3c(c2)OCO3)CCCCC1,i,0.95,85.0,
O=C1NC2(CCSC2)C(=O)N1Cc1ccc(OC(F)(F)F)cc1 (stereo not drawn),i,1,101.0,
Cc1ccc(C(=O)CCC(=O)N2CCc3sccc3C2)s1,i,1.16,94.0,
CN(Cc1ccc(Br)o1)S(=O)(=O)c1cccs1,i,0.92,101.0,
CC(C)C(=O)N1CCC(C(=O)NC(C)C23CC4CC(CC(C4)C2)C3)CC1 (stereo not drawn),i,0.89,91.0,

# Main list, from the first entry:
SMILES,CFTR F508del,CFTR F508del fold 10 ug/mL,CFTR F508del viability 10 ug/mL,others
O=C(O)C1(c2ccc3c(c2)OCO3)CCCCC1,i,0.95,85.0,
O=C1NC2(CCSC2)C(=O)N1Cc1ccc(OC(F)(F)F)cc1 (stereo not drawn),i,1,101.0,
Cc1ccc(C(=O)CCC(=O)N2CCc3sccc3C2)s1,i,1.16,94.0,
CN(Cc1ccc(Br)o1)S(=O)(=O)c1cccs1,i,0.92,101.0,
CC(C)C(=O)N1CCC(C(=O)NC(C)C23CC4CC(CC(C4)C2)C3)CC1 (stereo not drawn),i,0.89,91.0,
c1cncc(-c2nnc(SCc3noc(-c4ccco4)n3)n2C2CC2)c1,i,0.95,93.0,
O=C(NCCCOCC1CC1)Nc1ccc(Br)cc1F,i,0.9,91.0,
Cc1ccc(-c2noc(CCCSc3n[nH]c(N)n3)n2)cc1F,i,0.82,78.0,
C=CCn1c(SCCO)nc2sc3c(c2c1=O)CCC3,i,1.04,93.0,
Oc1ccc(O)cc1,i,nt,nt,CFTR F508del fold 25 µM=1.06;CFTR F508del viability 25 µM=89.0
CC1CCc2c(sc(NC(=O)COC(=O)c3cc(Br)c(Br)s3)c2C#N)C1 (stereo not drawn),i,0.99,98.0,
Cc1noc(C)c1S(=O)(=O)N1CCN(Cc2nc(C(C)(C)C)no2)CC1,i,1.03,82.0,
C=CCOC(=O)C1=C(C)N=c2s/c(=C3\C(=O)N(C)c4ccccc43)c(=O)n2C1c1ccccc1 (stereo not drawn),i,1.08,105.0,
Cc1cc(-c2csc(Nc3ccccn3)n2)c(C)n1-c1ccccn1,i,1.11,78.0,
O=[N+]([O-])O[C@@H]1CO[C@H]2[C@@H]1OC[C@@H]2O,i,nt,nt,CFTR F508del fold 25 µM=1.05;CFTR F508del viability 25 µM=91.0
Cc1nc(SC2CCOC2=O)c(C#N)c(C)c1C (stereo not drawn),i,0.99,104.0,
O=C(NCc1ccccc1)NC1(C(=O)NCc2ccccc2CN2CCOCC2)CCCC1,i,1.04,87.0,
Cn1c(=O)c2c(-c3ccc(OC(F)F)cc3)cc(-c3ccccc3)nc2n(C)c1=O,i,1.04,96.0,
O=S(=O)(c1cccc(CSc2ccccc2Cl)c1)N1CCOCC1,i,0.82,85.0,
Cc1cc(C)n2nc(SCc3nc(N)c4ccccc4n3)nc2n1,i,1,95.0,
O=C(COc1ccc2c(c1)OCO2)NCC1COc2ccccc2O1 (stereo not drawn),i,0.97,96.0,
Cn1c(C2COc3ccccc3O2)nn(CN2CCSc3ccc([N+](=O)[O-])cc32)c1=S (stereo not drawn),i,1.28,95.0,
Cn1ccc(NS(=O)(=O)c2ccc(F)cc2[N+](=O)[O-])n1,i,0.96,103.0,
N#Cc1ccc(OCCSC2=NCCS2)cc1,i,0.91,76.0,
CC1CCc2c(sc3ncnc(-n4cnnc4C#N)c23)C1 (stereo not drawn),i,0.93,99.0,

# Other structures follow:
SMILES,CFTR F508del,CFTR F508del fold 10 ug/mL,CFTR F508del viability 10 ug/mL,others
CCN(CC)C(=O)/C(C#N)=C/c1cc(O)c(O)c([N+](=O)[O-])c1,i,nt,nt,CFTR F508del fold 25 µM=0.99&1.1;CFTR F508del viability 25 µM=87.0&106.0
CC(=O)c1c(SC(C)C(=O)c2c(C)[nH]c3ccccc23)nc(=O)[nH]c1C (stereo not drawn),i,1.06,84.0,
CN(Cc1ccc(Cl)cc1)CN1C(=O)CC2(CCCC2)C1=O,i,1,91.0,
CNCCCC(=O)OC,i,1.01,95.0,
Cc1cc(C(=O)OCC(=O)c2ccc(Br)s2)c(C)n1Cc1ccco1,i,0.82,88.0,
CC(C)Nc1nnc(SC(C)C(=O)NC(=O)NC2CC2)s1 (stereo not drawn),i,1.1,89.0,
O=C(Nc1ccnn1C1CCCC1)C12CC3CC(CC(Cl)(C3)C1)C2,i,0.9,76.0,
O=S1(=O)CCCN1CN1CCN(S(=O)(=O)c2ccc3ccccc3c2)CC1,i,0.93,84.0,
CCN(CC)CCNC(=O)c1cc(S(C)(=O)=O)ccc1OC,i,nt,nt,CFTR F508del fold 25 µM=1.25;CFTR F508del viability 25 µM=100.0
CCOC(=O)c1sc(NC(=O)N2CCOC(C)C2)c(C(=O)OCC)c1C (stereo not drawn),i,0.9,100.0,
O=S(=O)(NCCC1CCCO1)c1ccc2c(c1)OCCCO2 (stereo not drawn),i,0.96,88.0,
Cc1ccc(C)c(OCCCC(C)(C)C(=O)O)c1,i,nt,nt,CFTR F508del fold 25 µM=1.16&1&1.12;CFTR F508del viability 25 µM=87.0&114.0&96.0
O=C(CN1CSCC1=O)NCC(=O)Nc1ccc(F)c(F)c1F,i,0.97,90.0,
Cc1ccn2c(=O)cc(CSc3nc4ccccc4o3)nc2c1,i,1.02,101.0,
Cc1cc2nc(NC3CCCc4ccccc43)c3ccccc3n2n1 (stereo not drawn),i,0.78,68.0,
CS(=O)(=O)c1ccc(S(=O)(=O)N(CC2CCOC2)C2CC2)cc1 (stereo not drawn),i,1.04,107.0,
COc1ccc(CCN2CCN(S(=O)(=O)N3CCOCC3)CC2)cc1,i,1.2,88.0,
COC(=O)c1ccc2c(c1)CCN2C(=O)C12CCC(=O)N1c1ccccc1S2 (stereo not drawn),i,0.91,104.0,
Cc1nc(-c2ccc(OCC(C)C)c(C#N)c2)sc1C(=O)O,i,nt,nt,CFTR F508del fold 25 µM=1.09&0.98;CFTR F508del viability 25 µM=96.0&81.0
CC(=O)c1c[nH]c(C(=O)OCC(=O)c2ccc3c(c2)OCO3)c1,i,1.08,98.0,
Clc1ccc2c(c1)CCc1cccnc1C2=C1CCNCC1,i,nt,nt,CFTR F508del fold 25 µM=0.89&1.03;CFTR F508del viability 25 µM=92.0&95.0
Cc1ccc(/C=c2\s/c(=C\C(=O)C(C)(C)C)n(CC(=O)NC3CCCCC3C)c2=O)s1 (stereo not drawn),i,1.18,81.0,
O=C(NCCC1=CCCCC1)N1CCN(c2ncccn2)CC1,i,1.01,71.0,
CO[C@@]12[C@H](COC(N)=O)C3=C(C(=O)C(C)=C(N)C3=O)N1C[C@@H]1N[C@@H]12,i,nt,nt,CFTR F508del fold 25 µM=0.57;CFTR F508del viability 25 µM=13.0
CC1(CCc2ccccc2)NC(=O)N(Cc2ccc3c(c2)OCO3)C1=O (stereo not drawn),i,0.84,96.0,

# More structures follow.
SMILES,CFTR F508del,CFTR F508del fold 10 ug/mL,CFTR F508del viability 10 ug/mL,others
C#CCNC(=O)CCCC1CCCCC1,i,0.92,88.0,
CS(=O)(=O)N1CCCN(S(C)(=O)=O)CC1,i,1.11,93.0,
CC(Sc1nnc(N)s1)C(=O)N(C(C)C)C(C)C (stereo not drawn),i,1.01,99.0,
Brc1ccc(-c2nnn(Cc3noc(-c4cccs4)n3)n2)cc1,i,0.92,83.0,
CCCC(=O)Nc1ccc(OCC(O)CNC(C)C)c(C(C)=O)c1 (stereo not drawn),i,nt,nt,CFTR F508del fold 25 µM=1.03;CFTR F508del viability 25 µM=93.0
COc1cc(OC)c(/C=C/S(=O)(=O)Cc2ccc(OC)c(N)c2)c(OC)c1,i,0.84,77.0,
CC(C)OCCCNCC(O)COc1ccccc1F (stereo not drawn),i,1.1,114.0,
CC1CCN(c2c(C#N)c(=O)n(C)c(=O)n2C)CC1,i,1.05,102.0,
CN(C)S(=O)(=O)c1ccc(CS(=O)(=O)Cc2ccc(Cl)cc2)o1,i,0.95,98.0,
O=C(CCc1nc(-c2ccsc2)no1)NC1=NCCS1,i,0.85,80.0,
O=S(=O)(c1ccc(Br)cc1)N1CCCN(c2ncc(C(F)(F)F)cc2Cl)CC1,i,0.98,90.0,
N#CCCCOC(=O)c1c(NC(=O)C2CCCCC2)sc2c1CCC2,i,1.16,92.0,
CCOC(=O)C(F)(F)C(Nc1cc2c(cc1OC)oc1ccccc12)c1cccc(Br)c1 (stereo not drawn),i,1.05,97.0,
C[C@](N)(Cc1ccc(O)c(O)c1)C(=O)O,i,nt,nt,CFTR F508del fold 25 µM=1.09&0.9;CFTR F508del viability 25 µM=101.0&88.0
CCc1nc(CN2CCN(S(=O)(=O)c3ccc(Br)s3)CC2)cs1,i,0.96,76.0,
CC1CCCCC1N1C(=O)C(=O)N(CN(Cc2ccccc2)C(C)C)C1=O (stereo not drawn),i,1.05,104.0,
CCN1CCC(NS(=O)(=O)c2cc([N+](=O)[O-])cc(C)c2C)CC1,i,1.06,98.0,
O=C1NC2(CCc3ccccc32)C(=O)N1Cc1ccc(Cl)c(Cl)c1 (stereo not drawn),i,0.91,87.0,
Oc1ccc(Cl)c2cccnc12,i,nt,nt,CFTR F508del fold 25 µM=1.09;CFTR F508del viability 25 µM=90.0
CC(=O)OCC(=O)[C@@]1(O)CCC2C3CCC4=CC(=O)C=C[C@]4(C)[C@@]3(Cl)[C@@H](Cl)C[C@@]21C (stereo partly drawn),i,nt,nt,CFTR F508del fold 25 µM=1.09;CFTR F508del viability 25 µM=93.0
O=C1CN(C(=O)c2cc(Br)c[nH]2)CCN1,i,0.84,84.0,
Cc1ccc(C2(C)NC(=O)N(Cc3coc(-c4ccc(C)cc4C)n3)C2=O)cc1 (stereo not drawn),i,0.96,85.0,
CON=C1C[C@]2(C[C@@H]3C[C@@H](C/C=C(\C)C[C@@H](C)/C=C/C=C4\CO[C@@H]5[C@H](O)C(C)=C[C@@H](C(=O)O3)[C@]45O)O2)O[C@H](/C(C)=C/C(C)C)[C@H]1C,i,nt,nt,CFTR F508del fold 25 µM=0.94;CFTR F508del viability 25 µM=100.0
C=CCn1c(C)c(C)n2c3c(=O)[nH]c(=O)n(C)c3nc12,i,0.94,108.0,
Cc1nnc(NCC(C(C)C)N(C)C)c(C#N)c1C (stereo not drawn),i,1.38,86.0,

# The results go on.
SMILES,CFTR F508del,CFTR F508del fold 10 ug/mL,CFTR F508del viability 10 ug/mL,others
C=CCn1c(SCCOC)nc2c(oc3ccccc32)c1=O,i,0.98,96.0,
CN(c1ccc(S(=O)(=O)N2CCOCC2)cc1[N+](=O)[O-])C1CCCCC1,i,1.06,99.0,
CCN(CC)S(=O)(=O)N1CCN(Cn2[nH]c(C(C)(C)C)nc2=S)CC1,i,1.06,98.0,
O=[N+]([O-])c1cc(S(=O)(=O)C(F)(F)F)ccc1NC1CCCC1,i,0.88,85.0,
O=C(CCn1cnc2sc3c(c2c1=O)CCC3)NC1CCCCC1,i,1.03,86.0,
CC(C)n1ncc2c(C(=O)O)cc(-c3ccncc3)nc21,i,1.13,98.0,
Cc1cc(C(C)(C)C)cc(C)c1CSc1nncn1C,i,1.14,99.0,
CN(C1C2CC3CC(C2)CC1C3)S(=O)(=O)c1ccc(Br)s1 (stereo not drawn),i,0.88,74.0,
O=C(O)C1CCN(C(=O)N2CCNCC2)CC1,i,1.1,102.0,
CC1(C)C2CCC1(C)C(NC(=O)c1cncc(Br)c1)C2 (stereo not drawn),i,0.91,87.0,
CC1CCN(S(=O)(=O)NC23CC4CC(CC(C4)C2)C3)CC1,i,0.99,102.0,
CCCCn1c(=O)[nH]c(=O)c2c1nc(CSc1nnc(-c3ccco3)n1C1CCCCC1)n2CC,i,0.95,75.0,
Cn1cnnc1CNS(=O)(=O)c1ccc2ccccc2c1,i,1,87.0,
CC(C)NCC(O)COc1cccc2ccccc12 (stereo not drawn),i,nt,nt,CFTR F508del fold 25 µM=1.1&1.02;CFTR F508del viability 25 µM=89.0&75.0
CSc1ccc(NC(=O)N2CCOCC2)cc1,i,0.93,101.0,
NS(=O)(=O)c1cc2c(cc1Cl)NCNS2(=O)=O,i,nt,nt,CFTR F508del fold 25 µM=1.12&1.04;CFTR F508del viability 25 µM=87.0&88.0
CN(CC12CC3CC(CC(C3)C1)C2)S(=O)(=O)c1cn(C)c(=O)n(C)c1=O,i,0.98,81.0,
CN1C2CCC1CC(OC(=O)c1c[nH]c3ccccc13)C2 (stereo not drawn),i,nt,nt,CFTR F508del fold 25 µM=0.98;CFTR F508del viability 25 µM=95.0
Cc1cc(C(=O)CN2C(=O)NC(C)(CCC(C)C)C2=O)c(C)n1C(C)C (stereo not drawn),i,0.96,98.0,
Clc1ccccc1OCCSc1nc(-c2cccs2)nc2ccccc12,i,1.01,93.0,
CCCCC1CCC(C(=O)N(CCCC)c2c(N)n(CC(C)C)c(=O)[nH]c2=O)CC1 (stereo not drawn),i,1.06,90.0,
O=C(OCc1nnsc1Cl)C1=Cc2ccccc2OC1,i,0.93,97.0,
CCn1cc(C#N)c(=O)n(Cc2ccc(Br)cc2)c1=O,i,1.01,105.0,
CNc1snc(C)c1C(=O)NCC12CC3CC(CC(C3)C1)C2,i,1.02,91.0,
COC(=O)CSc1nc(NC2CC2)c2ccccc2n1,i,0.95,92.0,

# Quoted at random: 3 compounds from above, in no set order.
SMILES,CFTR F508del,CFTR F508del fold 10 ug/mL,CFTR F508del viability 10 ug/mL,others
O=C(OCc1nnsc1Cl)C1=Cc2ccccc2OC1,i,0.93,97.0,
C=CCn1c(SCCOC)nc2c(oc3ccccc32)c1=O,i,0.98,96.0,
CCCCn1c(=O)[nH]c(=O)c2c1nc(CSc1nnc(-c3ccco3)n1C1CCCCC1)n2CC,i,0.95,75.0,

# Some of the compounds tested; the hit share may differ from the screen's.
